# TRPML1 blocker: human mucolipin-1 channel inhibition. Q9GZU1. TRPML1-inducible cells, Ca2+ dye fluorescence, FDSS; hits give low values; inhibition of EC80 agonist-evoked calcium signal. activity change, negative = inhibition, % (concentration not given with the values). actives 0.02% (n = 390,000). AID 624415; in the data active means activity change below about -50%; inconclusive means about -30% to -50%; inactive means above about -30%;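 note: stimulus is agonist 54-4 at its EC80 concentration; % is set by controls: 0 for no effect and ±100 for the full control effect; compound concentration not given in the record; the text of the record puts the active cut at -80%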
# Target sequence (Q9GZU1 whole entry, looked up): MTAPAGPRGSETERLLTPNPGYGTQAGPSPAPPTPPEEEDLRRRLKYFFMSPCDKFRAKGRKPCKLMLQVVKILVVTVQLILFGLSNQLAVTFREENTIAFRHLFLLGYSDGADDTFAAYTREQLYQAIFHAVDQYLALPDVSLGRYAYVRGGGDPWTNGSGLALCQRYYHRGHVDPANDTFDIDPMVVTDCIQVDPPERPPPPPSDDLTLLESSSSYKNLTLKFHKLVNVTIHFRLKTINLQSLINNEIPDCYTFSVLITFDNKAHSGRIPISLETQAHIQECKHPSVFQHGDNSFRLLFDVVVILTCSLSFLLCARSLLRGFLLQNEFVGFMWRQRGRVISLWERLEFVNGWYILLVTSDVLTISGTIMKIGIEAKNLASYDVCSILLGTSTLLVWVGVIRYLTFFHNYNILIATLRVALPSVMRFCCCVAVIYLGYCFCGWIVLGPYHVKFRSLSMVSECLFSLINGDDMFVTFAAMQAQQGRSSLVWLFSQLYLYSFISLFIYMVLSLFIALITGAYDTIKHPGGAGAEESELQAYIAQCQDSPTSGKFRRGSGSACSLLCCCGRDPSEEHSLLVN
#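 Calcium fluorescence in TRPML1-DL cells induced overnight with Tet: a 110 s read after compound pin addition, then a 110 s antagonist read after challenge with 54-4 at 4 uM final (EC80).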
# gsp antagonist: gsp mutant antagonism; gsp-mutant cells, cAMP HTRF, 30 min; control for the full effect not named in the record; Potency, µM (top dose mostly 76.9 µM), inactives show at the highest dose activity change, negative = inhibition, usual class: inhibitors; actives 0.4% (n = 340,000); AID 624288; active = falling curve of any shape with a large fitted effect; inconclusive = falling curve, mostly with a smaller effect; inactive = flat or rising curve; cell line not stated here;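 note: intracellular cAMP measured with PDE inhibitor Ro 20-1724 present during compound exposure; potency is the fitted concentration of half-maximal effect; % is set by controls: 0 for no effect and ±100 for the full control effect; nearly all actives have a fitted effect of over 65% in size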
#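 G418-selected cells were plated in DMEM/10% FBS for 16-24 h at 37C, then treated with compounds plus the PDE inhibitor […] (300 uM solution added) for 30 min at 37C. Intracellular cAMP was measured by HTRF after 30 min lysis at room temperature.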
# ClpP mod: qHTS Assay for Activators of ClpP; ATP-dependent Clp protease proteolytic subunit (Bacillus subtilis (strain 168)), P80244; actives 1.9% (n = 340,000); purified B. subtilis ClpP, FRET peptide cleavage, 20 min; Potency, µM (doses to about 57.5 µM), without a hit: top-dose activity change, negative = active; active = well fitted falling curve with a large enough effect; inconclusive = small, poorly fitted or top-dose-only effect; inactive = no such curve, though single readings can be large or run the other way; note: potency is the fitted concentration of half-maximal effect; the source files actives as falling curves though it sought activators and does not explain the sign; nearly all actives have a fitted effect of over 65% in size; many hits overshoot -100%
# Target sequence (P80244 whole entry, looked up): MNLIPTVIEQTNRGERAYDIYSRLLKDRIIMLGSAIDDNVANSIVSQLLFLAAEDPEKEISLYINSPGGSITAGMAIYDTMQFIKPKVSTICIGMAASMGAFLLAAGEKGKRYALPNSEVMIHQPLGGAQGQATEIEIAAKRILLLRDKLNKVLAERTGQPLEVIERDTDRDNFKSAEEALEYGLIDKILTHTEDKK
#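 FRET quenching reversal measured ClpP activation: 10 microg/mL B. subtilis ClpP at pH 8 with the FRET-FV decapeptide, read at 430 nm after 320 nm excitation. The 20-min minus 0-min signal was scaled between DMSO/no-enzyme wells and ADEP (5.8 microM final).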
# Menin-MLL FL inh: displaces fluorescein MLL peptide from human menin; 290,000 tested, under 10 active; FP activity change, % at 61.4 µM; Fluorescence polarization, fluorescein-MLL peptide displacement from menin; AID 1766; inconclusive = falling polarisation curve, or a change in total fluorescence; inactive = total fluorescence flat and polarisation flat or rising; no compound was filed as active; the % refers to the polarisation; negative = inhibition;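 note: % of control where 0% means no effect; inhibitors lower the polarisation; unlabelled MLL peptide was the positive control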
# TRPML1 agonist: activates the human TRPML1 channel; actives 0.12% (n = 410,000); TRPML1-expressing cells, Ca2+ dye fluorescence, FDSS; host cell line not named in the record; reference of the full effect not given here; activation, % (no concentration beside the values); Q9GZU1; in the data active = activation above about 50%; inconclusive = about 30% to 50%; inactive = below about 30%; note: 0% is about no effect; the text of the record puts the active cut at 80%
#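 Calcium fluorescence on an FDSS kinetic reader gave the read-out. Tet-induced TRPML1-DL cells were plated overnight, dye-loaded (Ca8 with quencher, 45-90 min, room temperature, dark), then read 110 s after compound addition, and again 110 s after 4uM final 54-4 (EC80).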
# gsp agonist: gsp mutant agonism; gsp mutant cells, cAMP HTRF, 30 min; control for the full effect not named in the record; Potency, µM (doses to about 76.9 µM), for the others: at the top dose activation (cAMP increase), most hits filed as activators; actives 0.13% (n = 340,000); AID 624287; active = well fitted activation curve with a large enough effect; inconclusive = small, poorly fitted or top-dose-only effect, or another doubt; inactive = no such curve, though single readings can be large or run the other way; cell line not stated here;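 note: phosphodiesterase inhibitor Ro 20-1724 added with compounds to block cAMP breakdown; potency is the fitted concentration of half-maximal effect; nearly all actives have a fitted effect of over 60% in size; about a fifth of the inactives were tested at one dose only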
#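 Cells in DMEM/10% FBS with G418 were pretreated with compounds in DMSO plus […] (300 uM stock) for 30 min at 37C. cAMP was measured by HTRF (cAMP-d2 plus anti-cAMP antibody-K) after 30 min at room temperature.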
# * marks the source's active call; other numbers are inactive results; ? = inconclusive; / = not tested or not shown; & = joins results of further samples; [ ] = another dose, or the depositor's remark.
SMILES	TRPML1 blocker	gsp antagonist	ClpP mod	Menin-MLL FL inh	TRPML1 agonist	gsp agonist
CC(C)(C)n1nnnc1C(c1ccncc1)N1CCN(c2ccc(O)cc2)CC1 (stereo unspecified)	-2	-6%	2.1%	1.4	-0.1	-22%
CCN(CC(=O)Nc1cc(Cl)ccc1C)C(=O)CCOc1ccccc1C	30	-12%	-1.7%	/	1.3	8%[15.4 µM]
CCN(CC)S(=O)(=O)c1ccc(N2CCOCC2)c(NC(=O)COc2ccc(OC)cc2)c1	25	?	-0.4%	/	4.7	35%
Cc1ccc(NC(=O)CCC(=O)NNC(=O)COc2ccc([N+](=O)[O-])cc2)cc1C	17	6%	-1.6%	/	0.0	4%
Cc1ccc(Cl)cc1N(CC(=O)NC1CCCCC1)S(C)(=O)=O	9	-1%	1.5%	1.6	-0.1	-43%[inhibitor]
COc1ccc(CCC(=O)Nc2ccc(C(=O)c3ccncc3)cc2)cc1	9	-15%	/	0.0	-0.9	-101%[inhibitor]
CN1CCCN(C(=O)CC(c2ccccc2)c2ccccc2)CC1	80	1%	-0.4%	-1.6	2.2	?
CN(C)c1ccc(/C=N\S(=O)(=O)c2ccccc2)cc1	-5	15%	-14%	4.0	0.0	7%[15.4 µM]
Cc1ccc(CN2CCC(n3nccc3NC(=O)c3ccc4c(c3)OCO4)CC2)o1	-10	-8%	-2.1%	3.6	0.5	-25%
COCCCN(C(=O)C(C)Oc1ccc(Br)cc1)c1c(N)n(Cc2ccccc2)c(=O)[nH]c1=O (stereo unspecified)	19	-3%	-3.3%	/	0.0	-27%
CC(C)CNC(=O)NC1(C(F)(F)F)Oc2ccccc2O1	15	12%	0.2%	0.7	-0.1	-2%[15.4 µM]
CC(C)CC(NC(N)=O)C(=O)NCc1ccc(Cl)cc1 (stereo unspecified)	-10	11%	-1.5%	1.3	-0.2	-42%
COc1ccc(CNC(=S)NCc2ccc(F)cc2)cc1	-4	-1%	-0.8%	/	1.3	-1%
CC(=O)n1cc(N(C(=O)CCl)c2ccccc2)c2ccccc21	1	-15%	/	-0.4	-0.2	-19%
COC(=O)C(C)Sc1nnc(Cc2cc(=O)[nH]c(=O)[nH]2)n1-c1cccc(OC)c1 (stereo unspecified)	-10	4%	-1.9%	-8.2	0.2	-8%
Cc1ccc(/C=N/NC(=O)c2nnn(-c3nonc3N)c2CN(C)c2ccccc2)s1	1	?	-2.9%	-2.4	-0.1	29%
CCN(CC)C(=O)[C@H]1C[C@H](CC(=O)NCCN2CCOCC2)C(=O)N2CCc3c([nH]c4cc(-c5ccco5)ccc34)[C@]12C	8	1%	4.9%	/	-0.6	/
Cc1csc(SCC(=O)Nc2ccc3[nH]c(=O)[nH]c3c2)n1	0	5%	0.1%	/	-0.1	-4%[15.4 µM]
COc1ccc2c(c1OC)C(=O)OC2CC(=O)O (stereo unspecified)	-11	-1%	?	0.3	1.0	14%
O=C(c1ccc(F)cc1)N1CCCC(C(=O)N2CCc3ccccc3C2)C1 (stereo unspecified)	29	-6%	3.2%	0.0	0.7	-1%
O=C(/C=C/c1ccc(Cl)cc1Cl)N1CCN(c2ccccc2[N+](=O)[O-])CC1	12	-16%	-1.6%	-3.4	1.1	29%[15.4 µM]
COC(=O)c1ccccc1NC(=O)CN1C(=O)c2ccccc2C1=O	6	-17%	5.0%	/	2.2	-16%
Cn1cc(-c2cc3n(n2)CCC(=O)N3CC(=O)NCc2ccc(Cl)cc2)c2ccccc21	1	/	-9.1%	/	-0.2	/
CC(C)OC(=O)CSc1nc2c(cc1C#N)CCCCC2	2	2%	-2.1%	-4.9	0.4	9%
CCOC(=O)c1nnn(-c2nonc2N)c1C	46	7%	-2.0%	3.1	4.0	6%

SMILES	TRPML1 blocker	gsp antagonist	ClpP mod	Menin-MLL FL inh	TRPML1 agonist	gsp agonist
Cc1cc(C(=O)NCCC(C)C)c2ccccc2n1	-4	-1%	/	6.7	-0.6	2%[15.4 µM]
Nc1cc(S(=O)(=O)O)cc([N+](=O)[O-])c1O	27	/	/	-7.6	-0.1	-3%[15.4 µM]
Cc1ccc(-n2c(=O)c3ccc(C(=O)NCc4ccccc4Cl)cc3n(Cc3ccccc3F)c2=O)cc1	-20	/	-4.0%	/	1.7	/
CCCn1nc(C(=O)OCC(=O)Nc2ccc(C)cc2)c2ccccc2c1=O	5	-14%	/	/	1.8	13%
CCN(C(=O)COC(=O)Cc1cccc2ccccc12)C1CCS(=O)(=O)C1 (stereo unspecified)	5	4%	0.0%	/	-0.2	-4%
CCc1ccc(C2CC(=O)Nc3c2c(=O)nc2c(C)cccn32)cc1 (stereo unspecified)	-2&3	14%	0.7%&-19%	-4.3	-0.1&0.6	5%[15.4 µM]
CCCCC(=O)NC(c1cccc([N+](=O)[O-])c1)c1ccc2cccnc2c1O (stereo unspecified)	21	1%	0.8%	/	4.1	5%
O=C(Nc1nc(-c2cccc3ccccc23)cs1)c1cnccn1	-21	-2%	1.0%	8.7	-0.1	27%
COc1ccc(S(=O)(=O)N2CCCCC2)cc1NC(=O)c1cnc(C)cn1	-2	5%	2.1%	/	-0.3	-3%
CCC1Sc2ccc(S(=O)(=O)CCC(=O)Nc3ccccc3Br)cc2NC1=O (stereo unspecified)	9	7%	2.4%	-6.8	0.4	?
O=C(Nc1nnc(C2CC2)s1)c1ccc(Cl)c(S(=O)(=O)N2CCc3ccccc3C2)c1	12	-8%	0.8%	8.8	0.8	2%[15.4 µM]
COc1ccc(CC(C)N2CCN(c3cccc(C(F)(F)F)c3)CC2)cc1OC (stereo unspecified)	-4	-6%	-2.1%	4.2	0.1	27%
CCOC(=O)c1ccc(NC(=O)CSc2nc3c(c(=O)n2CC)SC(C)C3)cc1 (stereo unspecified)	27	?	1.1%	3.1	1.9	-5%
Cc1nc(-c2coc3cc(C)c(N=O)c(O)c3/c2=N\N)cs1	7	7%	-1.2%	-3.2	-0.6	-5%[15.4 µM]
NC(=S)NN=Cc1nccc2ccccc12	4	-4%	/	/	-0.5	6%
O=C(N/N=C/c1ccccc1F)NC12CC3CC(CC(C3)C1)C2	40	-3%	-0.5%	2.9	3.0	?
Cn1c(-n2cccc2)c(-c2c(-c3ccccc3)[nH]c3c2c(=O)n(C)c(=O)n3C)c(=O)n(C)c1=O	-5	/	-0.8%	/	0.4	/
Cc1ccc(OCC(=O)Nc2ccc(Cl)c(-c3nc4ccccc4[nH]3)c2)cc1C	-15	/	4.7%	/	1.2	/
O=C(CN(C(=O)CCC(=O)Nc1nccs1)c1cccc(C(F)(F)F)c1)NCC1CCCO1 (stereo unspecified)	5	-14%	/	9.0	-0.4	3%[15.4 µM]
Brc1ccc(-c2csc(N3CCc4ccccc4C3)n2)cc1	4	9%	-11%	0.1	3.3	7%
O=C(c1cc2cc(Cl)ccc2o1)N1CCCCCC1	3	1%	1.8%	/	-0.5	21%
CCOc1ccc(C(=O)c2cn(CC(=O)Nc3ccc(F)c(F)c3)c3cc4c(cc3c2=O)OCCO4)cc1	-29	/	-2.8%	/	0.6	/
COc1cccc(C(c2nnnn2Cc2ccco2)N2CCN(c3cccc(C)c3C)CC2)c1OC (stereo unspecified)	40	-8%	-1.2%	-1.3	6.7	11%
CCN1CCN(C(=O)c2ccc3c(c2)N(Cc2ccc(Cl)cc2)C(=O)c2ccccc2S3(=O)=O)CC1	-16	/	-2.3%	/	0.4	/
CCOC(=O)c1sc(NC(=O)CNC(=O)Cn2cnc3sc(C)c(C)c3c2=O)nc1C	-2	6%	2.4%	1.9	0.1	-41%[inhibitor]

SMILES	TRPML1 blocker	gsp antagonist	ClpP mod	Menin-MLL FL inh	TRPML1 agonist	gsp agonist
CCCCCCc1cc2cc(-c3cn4c(n3)sc3cc(OC)ccc34)c(=O)oc2cc1O	-71*	/	-1.8%	/	2.8	/
Cc1c(OCC(=O)NC2CC(C)(C)NC(C)(C)C2)ccc2c1oc(=O)c1ccccc12	6	1%	3.9%	-3.1	-0.8	?
CCCN1CCC(=O)N(CCSc2ccc(C)cc2)CC1	-12&-14	10%	-0.9%	-6.7&0.6	1.3&-0.7	/
Cc1ccc(C(=O)n2c3ccccc3c3ccccc32)cc1	9	0%	4.3%	1.5	0.0	9%
CCn1c(SC(C)C(=O)NCC2CCCO2)nc2ccccc21 (stereo unspecified)	-8	12%	2.5%	/	-0.1	-29%
C=CCNC(=O)C1CCN(S(=O)(=O)c2ccc3ccccc3c2)CC1	9	-9%	2.3%	4.7	-0.2	17%
CCc1ccc(S(=O)(=O)NCCc2cn3cccc(C)c3n2)s1	0	6%	-3.7%	0.5	0.8	-2%
CCC(C)[C@H](NC(=O)N1CC(=O)Nc2ccccc21)C(=O)Nc1ccccc1C (stereo partly specified)	-7	3%	-1.6%	/	3.2	-10%
Cc1ccc(-c2nc3ccccn3c2NCc2ccc3c(c2)OCO3)cc1	4	?	32µM*	3.1	0.7	?
CCOc1ccc(-c2cc3c(=O)n(CC(=O)NCc4ccc(OC)cc4)ccn3n2)cc1	14	/	-1.9%	/	0.8	/
COc1cccc(C2=CC(c3ccc(N(C)C)cc3)n3nnnc3N2)c1 (stereo unspecified)	-14	3%	-4.4%	?	1.3	7%
Cc1[nH]nc(SCC(=O)N2CCCC2)c1[N+](=O)[O-]	14	9%	-1.3%	-3.0	0.8	5%
C=CC[C@H](CC(=O)NCCO)C(=O)N[C@@H](COC(=O)[C@@H](CC=C)Cc1ccc(F)cc1)Cc1c[nH]c2ccccc12	2	-14%	2.1%	/	0.4	/
Cc1ccc(S(=O)(=O)N2CCOCC2)cc1C(=O)N1CCC(Cc2ccccc2)CC1	-3	-9%	/	-1.3	0.8	16%
Cc1ccc(NC(=S)N2CCSC2c2cccs2)cc1 (stereo unspecified)	29	3%	-2.0%	-0.8	-0.3	-14%[15.4 µM]
CCc1c(C)c2ccc(OCC(=O)NCC3CCC(C(=O)O)CC3)cc2oc1=O (stereo unspecified)	/	4%	4.5%	-4.1	/	/
O=C(CSc1nnc(NC(=O)C2CCCCC2)s1)NCc1ccco1	-8	1%	/	-3.3	1.0	26%[15.4 µM]
O=C(NCc1ccco1)Nc1ccc(Br)cc1Cl	14	1%	-0.7%	2.1	1.1	-9%
Cc1ccccc1Nc1nc(N)nc(COC(=O)CCC(=O)c2ccc(F)cc2)n1	15	-1%	/	/	2.0	-5%[15.4 µM]
COc1cc(Cl)c(C)cc1NC(=O)CNC(C)c1ccccc1OC (stereo unspecified)	-3	-20%	-2.2%	-0.9	0.8	5%[15.4 µM]

# Compound activity (PubChem BioAssay)

# Random draw from the library (roughly 2.1% active in at least one column).
